# Bioassay records (PubChem BioAssay)
# ClpP mod – qHTS Assay for Activators of ClpP. ATP-dependent Clp protease proteolytic subunit (Bacillus subtilis (strain 168)), P80244. purified B. subtilis ClpP, FRET peptide cleavage, 20 min. Potency, µM (highest dose often 57.5 µM), inactives show top-dose activity change, negative = active. actives 1.9% (n = 340,000); active = well fitted falling curve with a large enough effect; inconclusive = small, poorly fitted or top-dose-only effect; inactive = no such curve, though single readings can be large or run the other way; note: potency is the fitted concentration of half-maximal effect; the source files actives as falling curves though it sought activators and does not explain the sign; nearly all actives have a fitted effect of over 65% in size; many hits overshoot -100%
# Target sequence (P80244 whole entry, looked up): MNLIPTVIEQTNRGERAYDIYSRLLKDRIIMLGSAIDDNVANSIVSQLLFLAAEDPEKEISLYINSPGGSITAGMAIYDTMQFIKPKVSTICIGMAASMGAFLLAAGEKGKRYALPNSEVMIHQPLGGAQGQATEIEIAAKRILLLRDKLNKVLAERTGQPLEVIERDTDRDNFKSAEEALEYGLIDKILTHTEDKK
#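 Buffer: 100 mM Tris/HCl pH8, 100 mM KCl, 0.05% low protease BSA, 2.5% glycerol, 0.01% Tween-20. ClpP 10 microg/mL final; 20 min RT; delta FRET normalized to ADEP and DMSO controls.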
# gsp antag – qHTS for Antagonists of gsp, the Etiologic Mutation Responsible for Fibrous Dysplasia/McCune-Albright Syndrome: qHTS; gsp-mutant cells, cAMP HTRF, 30 min; control for the full effect not named in the record; Potency, µM (doses to about 76.9 µM), for the others: top-dose activity change, negative = inhibition, most hits filed as inhibitors; actives 0.4% (n = 340,000); AID 624288, 2012; active = falling curve of any shape with a large fitted effect; inconclusive = falling curve, mostly with a smaller effect; inactive = flat or rising curve; cell line not stated here;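 note: intracellular cAMP measured with PDE inhibitor Ro 20-1724 present during compound exposure; potency is the fitted concentration of half-maximal effect; % is set by controls: 0 for no effect and ±100 for the full control effect; nearly all actives have a fitted effect of over 65% in size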
#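 HTRF cAMP read-out (cAMP-d2 plus anti-cAMP antibody-K in lysis buffer, 30 min RT). Before lysis, cells are exposed to compounds with […] for 30 min at 37C in DPBS containing Ca/Mg, BSA and Tween 20.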
# TRPV1 PAM – HTS Assay for Compounds that Act as Potentiators of the Vanilloid Receptor 1. TRPV1-expressing cells, Fluo-8 calcium influx, capsaicin EC20 potentiation; host cell line not named in the record; control for the full effect not named in the record. potentiation, % at 8.33 µM. actives 0.02% (n = 320,000); active means potentiation above 80%; inconclusive means 30% to 80%; inactive means below 30%; note: 0% is about no effect
#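 Cells expressing TRPV1 were dye-loaded with Fluo-8 and read kinetically: 10 s baseline, 3 min after compound (agonist portion), then 2 min after EC20 capsaicin (allosteric enhancer portion). Calcium-bound dye fluorescence at 480/520 nm.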
# Menin MLL FP FL – qHTS Assay for Inhibitors Targeting the Menin-MLL Interaction in MLL Related Leukemias: Competition With Fluorescein Labeled MLL-derived Peptide; Fluorescence polarization, fluorescein-MLL peptide displacement from menin; FP activity change, % at 61.4 µM; 290,000 tested, under 10 active; AID 1766, 2009; inconclusive = falling polarisation curve, or a change in total fluorescence; inactive = total fluorescence flat and polarisation flat or rising; no compound was filed as active; the % refers to the polarisation; negative = inhibition;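 note: % of control where 0% means no effect; inhibitors lower the polarisation; unlabelled MLL peptide was the positive control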
# gsp ag – qHTS for Agonist of gsp, the Etiologic Mutation Responsible for Fibrous Dysplasia/McCune-Albright Syndrome: qHTS. AID 624287, 2012. gsp mutant cells, cAMP HTRF, 30 min; control for the full effect not named in the record. Potency, µM (doses to about 76.9 µM), without a hit: at the highest dose activation (cAMP increase), most hits filed as activators. actives 0.13% (n = 340,000); active = well fitted activation curve with a large enough effect; inconclusive = small, poorly fitted or top-dose-only effect, or another doubt; inactive = no such curve, though single readings can be large or run the other way; cell line not stated here;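 note: phosphodiesterase inhibitor Ro 20-1724 added with compounds to block cAMP breakdown; potency is the fitted concentration of half-maximal effect; nearly all actives have a fitted effect of over 60% in size; about a fifth of the inactives were tested at one dose only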
#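 Cells in DMEM/10% FBS with G418 were pretreated with compounds in DMSO plus […] (300 uM stock) for 30 min at 37C. cAMP was measured by HTRF (cAMP-d2 plus anti-cAMP antibody-K) after 30 min at room temperature.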
# Sfp inh – qHTS Assay for Inhibitors of Bacillus subtilis Sfp phosphopantetheinyl transferase (PPTase). Biochemical Sfp PPTase activity, qHTS. actives 3.5% (n = 310,000). 4'-phosphopantetheinyl transferase ffp (Bacillus subtilis), Q9F4F7. Potency, µM, for the others: max response, negative = inhibition, usual class: inhibitors. AID 1490, 2009; active = well fitted inhibition curve with a large enough effect; inconclusive = small, poorly fitted or top-dose-only effect, or another doubt; inactive = no such curve, though single readings can be large or run the other way;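 note: the enzyme is Sfp with the accession as filed and its product quenches rhodamine fluorescence; potency is the fitted concentration of half-maximal effect; 0% = enzyme reaction without inhibitor and -100% = no enzyme wells; top concentration of the series not given in the record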
#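 Buffer: 50 mM Hepes-Na pH 7.6, 10 mM MgCl2, 0.01% Nonidet P-40, 0.01% BSA. Enzyme 15 nM, pre-exposed to compound 15 min; substrates then added and fluorescence change tracked over 30 min.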
# TRPML1 inh – qHTS for Inhibitors of the Human Mucolipin Transient Receptor Potential 1 (TRPML1) | actives 0.02% (n = 390,000) | TRPML1-inducible cells, Ca2+ dye fluorescence, FDSS; stronger effect = lower value; inhibition of EC80 agonist-evoked calcium signal | activity change, negative = inhibition, % (no concentration beside the values) | Mucolipin-1 (Homo sapiens), Q9GZU1 | AID 624415, 2012; in the data active means activity change below about -50%; inconclusive means about -30% to -50%; inactive means above about -30%;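 note: stimulus is agonist 54-4 at its EC80 concentration; % is set by controls: 0 for no effect and ±100 for the full control effect; compound concentration not given in the record; the text of the record puts the active cut at -80%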
# Target sequence (Q9GZU1 whole entry, looked up): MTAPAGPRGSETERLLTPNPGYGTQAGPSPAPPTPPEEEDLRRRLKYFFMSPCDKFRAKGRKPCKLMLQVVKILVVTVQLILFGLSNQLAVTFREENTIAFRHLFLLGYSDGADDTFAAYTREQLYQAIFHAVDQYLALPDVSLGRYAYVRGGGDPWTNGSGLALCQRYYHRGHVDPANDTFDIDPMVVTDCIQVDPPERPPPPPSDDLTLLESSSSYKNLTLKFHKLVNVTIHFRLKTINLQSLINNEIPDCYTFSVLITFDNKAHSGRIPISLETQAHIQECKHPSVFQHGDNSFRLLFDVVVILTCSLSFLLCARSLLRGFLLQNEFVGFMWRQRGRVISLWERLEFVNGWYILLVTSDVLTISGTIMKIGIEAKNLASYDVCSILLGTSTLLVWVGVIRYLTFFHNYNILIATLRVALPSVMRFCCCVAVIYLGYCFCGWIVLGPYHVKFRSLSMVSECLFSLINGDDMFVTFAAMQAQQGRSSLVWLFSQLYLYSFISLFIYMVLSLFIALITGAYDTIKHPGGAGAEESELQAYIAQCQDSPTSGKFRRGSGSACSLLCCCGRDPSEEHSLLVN
#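 Tet-induced TRPML1-DL cells loaded with Ca8 no-wash calcium dye were read kinetically on FDSS. Compound addition was followed by EC80 agonist 54-4 (4 uM final); inhibition was read over 110 s.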
# * hit, by the source's call; ? = inconclusive; nt = no result given; & = joins results of further samples; [ ] = remark or other dose.
# Results follow in this order: ClpP mod	gsp antag	TRPV1 PAM	Menin MLL FP FL	gsp ag	Sfp inh	TRPML1 inh
Cc1ccc2c(c1)C(=C(C#N)C#N)C(=O)N2CCN1CCCCC1
 : nt	2%	-15	14	-8%[15.4 µM]	-18%	-3
Cn1c(SCc2nc(-c3ccccc3)no2)nnc1-c1cccs1
 : -0.2%	0%	27	1.7	15%	18%	2
CN1CCCC(CN2c3ccccc3Sc3ccccc32)C1 (stereo not drawn)
 : -4.2%	6%	3	5.4&-0.8	nt	4%&-24%	20
NC(=O)c1cc(-c2ccccc2)sc1NC(=O)Cc1ccc(S(=O)(=O)N2CCOCC2)s1
 : ?	1%	-5	6.3	-4%	-2%	-4
O=Nc1c(O)[nH]c2c(F)cccc12
 : -3.3%	10%	-1	-1.3	-51%	3%	40
Cc1cc(=O)[nH]c(-c2ccc(Cl)cc2)n1
 : nt	5%	-32	3.7	-5%[15.4 µM]	7%	17
O=C(O)/C=C/C(=O)c1ccc(O)cc1
 : nt	9%	nt	2.9	3%[15.4 µM]	2.2µM*	-26
CCN(CC)C(=O)C(=O)c1cn(CCOc2ccccc2)c2ccccc12
 : 0.8%	6%	-1	-1.5	?	7%	5
NC(=O)C1CCN(CC(=O)Nc2cccnc2Cl)CC1
 : 0.1%	8%	2	2.8	2%[15.4 µM]	13%	-15
CCC(C(=O)NC1CCCCC1)n1c2ccccc2c2nc(=O)cc(C)n21 (stereo not drawn)
 : 3.3%	-11%	3	nt	-33%[inhibitor]	1%	13
CN(C)c1ccc(CNC(=O)C2CCN(S(=O)(=O)c3ccc4c(c3)CCC(=O)N4)CC2)cc1
 : -2.7%	-9%	12	-0.1	?	-13%	-5
COc1cccc(NC(=S)N(CCN(C)C)C(C)c2ccco2)c1 (stereo not drawn)
 : -2.4%	6%	0	?	14%	-5%	13
Nc1nonc1-n1nnc(C(=O)N/N=C/c2c(F)cccc2Cl)c1-c1ccc2c(c1)OCO2
 : 84%	-19%	9	nt	-29%	18%	-6
O=C(c1ccc([N+](=O)[O-])cc1)N1CCN(C(=O)c2cccs2)CC1
 : -1.4%	8%	1	-0.6	-1%	-28%	-6
CCCCCc1c(C)nc(Nc2ccc(F)cc2)[nH]c1=O
 : -2.4%	-7%	-14	1.7	-21%	8%	-6
O=C(N/C=N/O)C(c1ccccc1)c1ncc(C(F)(F)F)cc1Cl (stereo not drawn)
 : nt	11%	-8	-9.4	-28%	5%	-16
Cc1cc(=O)oc2cc(OCC(=O)Nc3ccc(CN4CCOCC4)cc3)ccc12
 : 3.9%	-10%	6	5.8	-34%[inhibitor]	16%	-4
CC(C)c1ccc(N(CC(=O)NCc2ccc(F)cc2)C(=O)c2csnn2)cc1
 : 3.7%	-4%	6	2.3	-31%[inhibitor]	25%	42
COc1ccc(Cl)cc1NC(=O)c1nnn(CC(=O)Nc2ccc3c(c2)OCO3)c1N
 : -17%	3%	5	-3.6	2%	10%	-2
COc1cc2cnc(C3=CCCCC3)cc2cc1OC
 : 3.9%	7%	nt	nt	nt	nt	-10

# Further results follow.
# Results follow in this order: ClpP mod	gsp antag	TRPV1 PAM	Menin MLL FP FL	gsp ag	Sfp inh	TRPML1 inh
CC(C)CC(COCc1ccc(Cl)cc1)N1CCN(C(=O)c2cccc(C(F)(F)F)c2)CCC1=O (stereo not drawn)
 : 0.8%	-10%	-5	2.2	?	5%	26
CC1CN(C(=O)C(C)Sc2nc3ccccc3s2)CC(C)O1 (stereo not drawn)
 : -3.0%	-8%	-34	-1.1	-13%	-10%	-3
O=C(N/N=C/c1ccco1)C1COc2ccccc2O1 (stereo not drawn)
 : -2.3%	4%	-9	3.2	-39%	15%	20
N#Cc1ccc(S(=O)(=O)N2CCC(C(=O)Nc3cccc(C(=O)NC4CC4)c3)CC2)cc1
 : 0.0%	-1%	25	nt	?	nt	2
Cc1cc(N=Nc2ccccc2)c(NCC(O)C(O)C(O)CO)cc1C (stereo not drawn)
 : 2.2%	-2%	-6	0.9	18%	-14%	-3
CCC(=O)Nc1ccc(C(=O)Nc2cccc(OC)c2)cc1
 : ?	-3%	7	0.6	1%	-5%	11
CN(C(=O)c1ccc(NC(=O)Cc2ccc(NC(=O)C3CCN(C(=O)CCc4ccccc4)CC3)cc2)cc1)C1CC1
 : -0.1%	1%	-5	nt	nt	nt	10
O=C(OCC(=O)N1CCN(c2ccccc2)CC1)c1ccc[n+]([O-])c1
 : 2.5%	12%	0	6.7	-5%[15.4 µM]	-7%	14
Cc1cc(=O)n(C)c(=O)n1CCCCOc1ccc([N+](=O)[O-])cc1
 : nt	-27%	2	6.2	17%[15.4 µM]	10%	6
CCOc1ccc(N2CC(C(=O)NCCCN3CCOCC3)CC2=O)cc1 (stereo not drawn)
 : 2.5%	4%	4	0.4	?	16%	-7
Cc1ccc(C2=NN=C(NC(=O)CSc3nnc4c5ccccc5n(C)c4n3)SC2)cc1
 : -1.1%	2%	4	1.6	4%	3%	-6
Cn1c(NC(=O)C2c3ccccc3Oc3ccccc32)cc(=O)n(C)c1=O
 : -3.5%	5%	-13	-0.9	0%	-7%	-5
C/C(=N\NC(=O)c1ccc(CSc2nc(C)cc(C)n2)cc1)c1ccco1
 : nt	-9%	5	-1.2	-4%[15.4 µM]	3%	2
CSc1ccccc1NC(=O)COC(=O)c1ccc(-n2nc(C)cc2C)cc1
 : -2.0%	-10%	nt	nt	-5%	nt	0
COc1cccc(NC(=O)CSc2nc3c(c(-c4ccco4)c2C#N)CCCC3)c1
 : -16%	7%	-8	11	-1%	20%	32
Fc1ccc2nc(Nc3nc4c(F)cccc4s3)sc2c1
 : 8.9µM*	-29%	?	2.0	-1%	11%	-20
CC(=O)C(Sc1nc(N2CCOCC2)nc(N2CCOCC2)n1)C(=O)Nc1ccccc1 (stereo not drawn)
 : 1.8%	21%	-5	0.8	-68%[inhibitor]	-2%	-2
CCCCC(CCC(=O)Nc1ccc(C(=O)OCC)cc1)C(=O)O (stereo not drawn)
 : -3.0%	0%	22	2.3	-5%	8%	-11
CCOC(=O)c1sc(NNC(=O)c2ccc(C)cc2)nc1C
 : nt	1%	1	0.1	4%[15.4 µM]	6%	4
Cc1nc(N)sc1-c1csc(Nc2ccccc2)n1
 : -9.5%	-1%	-5	3.5	-37%[inhibitor]	-10%	-7

# (cont.)
# Results follow in this order: ClpP mod	gsp antag	TRPV1 PAM	Menin MLL FP FL	gsp ag	Sfp inh	TRPML1 inh
O=C(NCCCn1ccnc1)c1cccc(S(=O)(=O)NCc2ccccc2)c1
 : -0.4%	7%	-9	-1.0	1%[15.4 µM]	-3%	7
O=C(Nc1cccc(/C=C/c2nc3ccccc3c(=O)[nH]2)c1)c1ccccc1Cl
 : 3.0%	-3%	14	0.4	19%	-8%	2
C/C(CC(=O)Nc1ccc(Br)cc1)=N\NC(=O)c1cccc(O)c1
 : -1.6%	1%	-25	0.6	1%	18%	-15
CCOc1ccc(S(=O)(=O)N(CC)CC)cc1NC(=O)CSCc1c(C)noc1C
 : -18%	1%	14	nt	10µM*	nt	-4
CC(C)N(C(=O)[C@H]1C[C@H](CC(=O)NCCCn2ccnc2)C(=O)N2CCc3c([nH]c4cc(CCC(=O)N(C)C)ccc34)[C@]12C)C(C)C
 : -0.3%	3%	nt	nt	nt	nt	4
Cc1ccc(S(=O)(=O)N2CCN(C(=O)CSc3n[nH]c(N)n3)CC2)c(C)c1
 : 1.4%	0%	0	nt	-6%	nt	4
O=C(CCS(=O)(=O)c1ccc(Br)cc1)NCc1ccco1
 : 0.6%	16%	-2	-0.1	0%	-2%	3
COc1ccc(-c2cc3onc(-c4c(Cl)cccc4Cl)c3c(=O)n2C)cc1
 : ?	?	0	nt	-2%	nt	31
O=C(NCc1ccc2c(c1)OCO2)C1CC(c2cccc(Br)c2)=NO1 (stereo not drawn)
 : -0.5%	9%	2	-0.3	3%	-18%	-3
COc1ccc(-c2nc3nc(SC)nn3cc2C)cc1F
 : nt	4%	0	5.2	-2%[15.4 µM]	-18%	-17
COc1ccc(N2CC(C(=O)Nc3ccncc3)CC2=O)cc1 (stereo not drawn)
 : nt	-3%	-9	-1.5	25%	12%	21
CN1/C(=C\C(=S)NC(=O)c2cccc(Br)c2)C(C)(C)c2ccccc21
 : -1.9%	-28%	0	?	14%	?	36
COc1ccccc1NS(=O)(=O)c1cccc(C(=O)N/N=C/c2c(C)nn(-c3ccccc3)c2N2CCCC2)c1
 : -19%	-23%	-10	2.1	-1%[15.4 µM]	6%	-13
O=C(Nc1ccc(C(=O)N2CCOCC2)cc1)c1cccc(Br)c1
 : ?	-11%	-8	nt	-3%[15.4 µM]	1%	7
O=C(CCS(=O)(=O)c1ccccc1)NC1CCCCC1
 : -1.3%	14%	8	nt	19%	0%	-8
O=C(Nc1ccc(Cl)cc1[N+](=O)[O-])c1ccc2c(c1)OCCO2
 : -5.8%	8%	-25	0.3	-2%[15.4 µM]	3%	2
COC(=O)[C@H](C)NC(=O)NCc1ccc(S(N)(=O)=O)cc1
 : nt	10%	8	2.5	13%[15.4 µM]	11%	0
N#Cc1ccc(OCC(=O)NCC(c2cccs2)N2CCOCC2)cc1 (stereo not drawn)
 : -2.8%	5%	-2	3.1	-4%	15%	23
CC1=CC(=O)CC2C1(C)CCC(C)C2(C)CCC(C)CC(=O)O (stereo not drawn)
 : -2.4%	-7%	?	1.0	nt	13%	nt
O=C(NC1CC1)c1nc(Cn2cc([N+](=O)[O-])cn2)no1
 : -1.1%	9%	-1	nt	-1%	15%	-16
CCOc1ccc(C(=O)NCCCN(CC)CC)cc1
 : -1.3%	12%	5	0.0	-23%	9%	-20
